D2 potentiator = Beta-Arrestin HTS for Positive Allosteric Modulators of the Human D2 Dopamine Receptor: Potentiators. DiscoveRx D2 beta-arrestin cells, luminescence, 90 min; 100% = 57 uM dopamine signal. potentiation, % (concentration not given with the values). 360,000 tested, 0.23% active. AID 624464, 2012; active = potentiation of 50% or more; inconclusive = 30% to 50%; inactive = 30% or less;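 note: compound concentration not given in the record; tested on top of an EC20 dose of dopamine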
Target sequence (P14416 whole entry, looked up): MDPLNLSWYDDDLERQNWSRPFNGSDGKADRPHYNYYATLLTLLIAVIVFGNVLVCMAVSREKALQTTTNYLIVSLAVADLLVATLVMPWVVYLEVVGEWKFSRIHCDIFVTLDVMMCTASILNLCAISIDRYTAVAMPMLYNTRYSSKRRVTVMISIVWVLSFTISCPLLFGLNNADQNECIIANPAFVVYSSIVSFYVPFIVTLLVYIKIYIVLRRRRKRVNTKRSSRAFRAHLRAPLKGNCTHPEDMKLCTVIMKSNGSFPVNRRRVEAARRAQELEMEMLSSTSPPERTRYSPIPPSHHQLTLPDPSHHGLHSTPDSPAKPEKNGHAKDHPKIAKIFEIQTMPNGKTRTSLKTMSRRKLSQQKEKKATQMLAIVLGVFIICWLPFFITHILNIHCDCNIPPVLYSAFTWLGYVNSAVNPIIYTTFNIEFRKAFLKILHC
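D2 cells co-treated with compound plus 50 nM dopamine (EC20) for 90 min at 37 deg C to detect potentiation. Beta-arrestin recruitment was read as enzyme-fragment luminescence after 1 h at ambient temperature. Full response was set by 57 uM dopamine.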
CtBP-E1A inh = qHTS Assay for Inhibitors of the CtBP/E1A Interaction; AlphaScreen GST-E1A/His-CtBP binding, 1536-well; stronger effect = lower value; control for the full effect not named in the record; activity change, % (concentration not given with the values); 340,000 tested, 0.49% active; in the data active means activity change below about -65%; inconclusive means about -30% to -65%; inactive means above about -30%; note: % is set by controls: 0 for no effect and ±100 for the full control effect
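GST-E1A and His-tagged CtBP (125 nM each as 5X stock) were preincubated with pin-transferred compound for 2 h at 37 °C in the dark, then glutathione donor and nickel acceptor beads were added for 1 h before AlphaScreen reading.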
D2 ag = Beta-Arrestin HTS for Positive Allosteric Modulators of the Human D2 Dopamine Receptor: Agonists. DiscoveRx PathHunter D2 beta-arrestin, luminescence, 90 min; 100% = 57 uM dopamine signal. activation, % (no concentration beside the values). 360,000 tested, 0.084% active. AID 624465, 2012; in the data active = activation above about 40%; inconclusive = about 15% to 40%; inactive = below about 15%; note: compound concentration not given in the record; the text of the record calls up to 30% inactive
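DiscoveRx PathHunter D2 beta-arrestin cells (2,100/well) attached overnight, then compound-stimulated 90 min at 37 C in HBSS/10 mM HEPES/0.1% Tween-20 buffer; beta-galactosidase complementation read by luminescence after 1 h at ambient temperature. Dopamine 57 uM final (EC100) as control.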
TRPML1 ag = qHTS for Agonists of the Human Mucolipin Transient Receptor Potential 1 (TRPML1); Mucolipin-1 (Homo sapiens), Q9GZU1; TRPML1-expressing cells, Ca2+ dye fluorescence, FDSS; host cell line not named in the record; reference of the full effect not given here; activation, % (no concentration beside the values); AID 624414, 2012; 410,000 tested, 0.12% active; in the data active = activation above about 50%; inconclusive = about 30% to 50%; inactive = below about 30%; note: 0% is about no effect; the text of the record puts the active cut at 80%
Target sequence (Q9GZU1 whole entry, looked up): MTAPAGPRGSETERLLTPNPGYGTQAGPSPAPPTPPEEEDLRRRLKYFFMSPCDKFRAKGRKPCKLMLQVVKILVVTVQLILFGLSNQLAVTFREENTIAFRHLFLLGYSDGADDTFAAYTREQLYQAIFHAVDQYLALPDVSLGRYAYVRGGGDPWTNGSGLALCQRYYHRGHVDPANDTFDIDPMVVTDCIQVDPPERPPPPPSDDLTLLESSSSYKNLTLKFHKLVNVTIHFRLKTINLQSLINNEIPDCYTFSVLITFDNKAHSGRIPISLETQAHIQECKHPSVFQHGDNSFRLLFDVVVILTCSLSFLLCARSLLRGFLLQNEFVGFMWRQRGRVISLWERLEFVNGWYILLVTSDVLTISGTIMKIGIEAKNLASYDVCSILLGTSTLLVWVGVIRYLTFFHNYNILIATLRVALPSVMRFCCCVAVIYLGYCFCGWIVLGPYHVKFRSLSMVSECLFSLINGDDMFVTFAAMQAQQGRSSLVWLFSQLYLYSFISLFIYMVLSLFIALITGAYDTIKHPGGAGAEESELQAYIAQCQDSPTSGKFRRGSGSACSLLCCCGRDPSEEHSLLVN
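Tetracycline-induced TRPML1-DL cells are seeded and incubated overnight before loading with a no-wash Ca2+ dye and quencher. Agonist activity is taken from the 110 s fluorescence read following compound pin-transfer on an FDSS, before EC80 54-4 challenge.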
Six1-Eya2 blk = qHTS Assay for Inhibitors of the Six1/Eya2 Interaction; Homeobox protein SIX1 (Homo sapiens) + Protein phosphatase EYA2 (Homo sapiens), …; AlphaScreen GST-Six1/His-Eya2 binding, biochemical; stronger effect = lower value; control for the full effect not named in the record; activity change, % (test concentration not listed); 360,000 tested, 0.56% active; in the data active = activity change below about -65%; inconclusive = about -30% to -65%; inactive = above about -30%; note: % is set by controls: 0 for no effect and ±100 for the full control effect; compound concentration not given in the record
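AlphaScreen luminescence read after one hour at 37 °C in darkness. Pin-transferred compounds met GST-Six1 and His-Eya2 protein (5X stock 250 nM/500 nM) plus glutathione donor and Ni-chelate acceptor beads (5X, 50 ug/mL).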
PINK1 modulator = A Quantitative High throughput Screen to Identify Chemical Modulators of PINK1 Expression | PINK1 immunofluorescence, high-content cytometry, 24 h | Potency, µM (highest dose often 76.6 µM), without a hit: at the highest dose activation (PINK1 increase), actives largely listed as activators | 410,000 tested, 0.2% active | AID 624263, 2012; active = well fitted activation curve with a large enough effect; inconclusive = small, poorly fitted or top-dose-only effect; inactive = flat fitted curve, though single readings scatter; cell line not stated here;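 note: potency is the fitted concentration of half-maximal effect; % of control where 0% means no effect; nearly all actives have a fitted effect of over 65% in size; a mitochondrial uncoupler was the plate control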
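Fluorescence from anti-PINK1 antibody, together with nuclear and cell stains, was scanned on a laser-scanning cytometer. Before staining, stable-line cells were incubated 24 hours with compounds at 5 concentrations; primary antibody 12 h at 10 degrees C.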
An asterisk follows results filed as active; ? = inconclusive; / = not tested or not shown; & = joins results of further samples; [ ] = dose if it differs, or a comment. Random draw from the library; about 1.3% have a hit in one of these screens.

cpd	smiles	D2 potentiator	CtBP-E1A inh	D2 ag	TRPML1 ag	Six1-Eya2 blk	PINK1 modulator
1	Cc1ccc(C2C(C#N)=C(N)Oc3nc(-c4ccccc4)[nH]c32)o1 (stereo not given)	-10.0	-0.2	-2.4	0.6	-6.7	-0.9%
2	CC(C)CCN1C(=O)c2ccc(C(=O)NCc3ccccn3)cc2C1=O	-0.2	-1.4	1.2	0.1	-2.3	0.9%
3	Cc1sc(N/N=C/c2cc([N+](=O)[O-])ccc2O)nc1-c1ccccc1	-7.0	/	-3.6	-0.3	-10.6	4.2%
4	CCOC(=O)c1sc(NC(=O)c2ccc(CC)s2)nc1C	-1.4	5.0	-2.0	0.3	-1.8	0.7%
5	CCOC(=O)[C@H]1[C@H]2COc3ccc(Br)cc3[C@H]2N2C(=O)CN(Cc3ccc(C)cc3)C(=O)[C@@]12C	?	-5.0	6.3	-0.3	-14.4	0.8%
6	C=CCn1c(SCC(C)=O)nnc1-c1cc(-c2ccccc2)sc1N	-9.8	-18.4	0.1	0.9	-5.5	1.1%[38.3 µM]
7	C/C(Cl)=C\C[N+](C)(C)CC(=O)OCCc1ccccc1	-21.2	/	-5.6	0.2	-3.0	0.3%
8	COc1cccc(-c2nnc3sc(-c4ccco4)nn23)c1	-17.0	-1.2	-1.2	0.3	0.0	2.3%
9	O=C(O)c1ccc(COc2ccccc2/C=C2\NC(=O)N(Cc3ccc(F)cc3)C2=O)cc1	-2.4	3.7	-2.6	1.6	2.2	-0.4%
10	CS(=O)(=O)Nc1ccc(S(=O)(=O)N2CCOCC2)cc1	-13.8	3.0	-3.0	5.1	-0.6	0.1%
11	Cc1csc2c(N3CCC(C(=O)O)CC3)ncnc12	-14.6	/	-4.7	-0.4	3.7	2.1%
12	CCOC(=O)/C(N=Nc1c(C)n(C)n(-c2ccccc2)c1=O)=C(\C)O	-4.0	-28.2	-3.2	1.8	-27.6	0.3%
13	O=C(CCN1C(=O)c2ccccc2C1=O)NCc1cccc(Cl)c1	-2.6	1.1	5.0	-0.8	3.4	5.1%
14	CC(=O)N1CCCc2cc(S(=O)(=O)N3CCCC(C(=O)N4CCN(c5ccccc5)CC4)C3)ccc21 (stereo not given)	-2.8	-8.9	0.3	-0.8&-0.5	-3.9	-0.3%&-0.6%
15	O=C1c2ccccc2S(=O)(=O)c2cc(N3CCC(C(=O)N4CCCCC4)CC3)ccc21	17.6	8.0	8.3	7.6	8.5	2.8%
16	Cc1ccc2c(c1)sc(-c1ccc(N(C)C)cc1)[n+]2C	-44.9	/	-1.1	2.4	3.5	?
17	Cc1c(Cl)cccc1NC(=S)N1CCN(Cc2ccccc2)CC1	-20.9	-3.7	-1.7	1.2	-2.4	/
18	COC(=O)c1ccccc1NS(=O)(=O)c1c(C)noc1C	-1.3	6.4	-2.7	6.5	-0.2	-0.8%
19	Cc1cc(C)n(NC(=S)NC2CCCC2)c(=O)c1C#N	-13.2	-8.5	-2.4	0.6	-1.0	3.5%
20	CN(C)S(=O)(=O)N1CCN(c2ccnc3cc(Cl)ccc23)CC1	-2.5	5.2	-1.8	0.7	-3.2	0.0%
21	COc1ccc(CNC(=O)C(OC(=O)c2cccs2)C(C)C)cc1 (stereo not given)	4.0	20.8	2.9	-0.5	1.7	3.8%
22	C/C=C(/C)C(=O)Nc1cccc(C2=NOC3(C2)C[C@@H](C(N)=O)N(C(=O)/C=C/CC)C3)c1 (stereo not given in full)	-5.0	8.4	-1.2	-0.4	4.1	0.4%
23	CC(=O)c1ccc(S(=O)(=O)N2Cc3ccccc3CC2C(=O)O)cc1 (stereo not given)	-2.6	-0.6	-3.0	-0.2	-15.3	2.3%
24	CCC(=O)N1CCc2cc(S(=O)(=O)CCC(=O)Nc3ccc(C)cn3)ccc21	-0.1	-0.4	2.9	1.0	-0.7	-0.2%
25	Cc1c(Cl)cccc1NC(=O)C1CCCN(S(C)(=O)=O)C1 (stereo not given)	-2.9	-0.7	-2.9	0.7	1.1	0.9%
26	Cc1csc(NC(=O)COCC(=O)O)c1-c1nc2ccccc2s1	-4.0	?	-3.4	1.1	-27.2	-0.9%
27	Cc1cccc(NC(=O)C(Cc2ccccc2)n2cccc2)c1 (stereo not given)	-13.0	10.2	-1.8	3.0	-9.9	4.0%
28	Cc1ccc(CNc2ncnc3[nH]ncc23)cc1	-9.5	7.2	-1.4	-0.4	2.6	-1.1%
29	CN(C)CCCN(C(=O)COc1ccccc1)c1nc2cc3c(cc2s1)OCO3	-35.2	-1.4	-8.9	0.4	-8.8	1.6%
30	CCOc1ccc(N2C(=O)CC(NC3CCN(C(=O)c4cccc(Cl)c4)CC3)C2=O)cc1 (stereo not given)	6.0	3.5	-0.6	0.0	2.4	0.2%
31	CC1CCN(C(=O)COC(=O)/C=C/c2ccco2)CC1	-0.1	0.0	-2.2	0.8	11.3	1.5%
32	CC1(C)CC2CC(C)(CN2C(=O)COC(=O)Cn2[nH]c(=O)c3ccccc3c2=O)C1 (stereo not given)	-6.0	4.0	-2.7	1.0	-1.7	0.2%
33	COc1ccc(N2CCN(C(=O)C3CC(O)CN3S(=O)(=O)c3ccc([N+](=O)[O-])cc3)CC2)cc1 (stereo not given)	13.7	3.2	7.8	0.0	-0.2	-1.7%
34	O=C(O)CN1C(=O)/C(=C\c2cc([N+](=O)[O-])ccc2OCc2ccccc2Cl)SC1=S	0.8	-0.2	-1.2	-0.2	-10.9	2.7%
35	C=CCN(Cc1ccc(Cl)s1)C(=O)CNC(=O)CNC(=O)c1ccc(Cl)cc1Cl	-0.2	2.4	-4.3	0.5	0.3	-0.6%
36	COc1cc(/C=C/C(=O)OCC(=O)N2CCCCCC2)ccc1OCC#N	2.6	-16.4	0.4	0.2	-4.3	3.5%
37	COCCCN1C(=O)C(=O)/C(=C(/O)c2ccc(S(=O)(=O)N3CCCCC3)cc2)C1c1ccc(O)cc1 (stereo not given)	-0.6	10.4	-2.4	-1.1	2.1	3.5%
38	COc1ccc(NC(=O)N(C)[C@H]2C[C@H]3c4[nH]c5ccc(-c6ccc(OC)cc6)cc5c4CCN3C(=O)[C@H]2[C@H](C)O)cc1	1.4	-21.6	-7.4	0.7	?	5.1%
39	CCn1c(SCC(=O)Nc2ccc3c(c2)OCO3)nc2ccccc21	-9.1	-1.0	-0.3	3.5	-5.0	-1.8%
40	COc1nc(-c2ccccc2)ccc1-c1noc(-c2cccs2)n1	-2.8	-1.8	-0.8	1.2	13.3	-1.5%
41	Cc1c(C(=O)NCc2ccc3c(c2)OCCO3)sc(=O)n1Cc1ccc(C(=O)N(C)C)cc1	1.6	3.2	10.7	-1.0	-2.8	1.2%
42	CCOC(=O)N1CC(C)N(C(=S)Nc2ccccc2)CC1C (stereo not given)	3.6	0.3	0.4	0.0	6.8	2.8%
43	CN(Cc1nnc(SCC(=O)NCCc2ccccc2)n1C)S(=O)(=O)c1ccccc1	-8.6	7.2	-3.0	-0.6	10.7	-1.6%
44	COc1cc(CSc2nc(-c3ccccc3)cc(=O)[nH]2)cc(OC)c1	-11.8	/	0.2	1.6	-15.8	6.1%
45	CC(=O)N1CCn2c3c(c4cc(C)ccc42)CCCC31 (stereo not given)	?	/	4.2	2.0	-14.3	-1.0%
46	CCOc1cccc(C2C(C(=O)c3cccs3)=C(O)C(=O)N2Cc2cccnc2)c1 (stereo not given)	-19.0	-7.0	-3.1	0.3	1.5	0.4%
47	Cc1ccc(CN2CCN(/N=C/c3ccc(C(=O)O)cc3)CC2)c(C)c1	-6.7	-0.4	2.2	-0.3	-4.0	5.4%
48	C#CCOC(=O)Nc1ccc(=O)n(Cc2c(Cl)cccc2Cl)c1	-22.8	-1.0	-1.6	0.4	-2.6	/
49	CCOC(=O)c1csc(-n2nc(C)cc2C(F)(F)F)n1	-5.4	13.4	0.3	0.3	3.4	0.4%
50	O=C(COc1ncnc2sccc12)NC1CCCCC1	0.5	-2.6	-1.9	0.6	5.5	0.9%
51	Cc1ccc(NC(=O)C2(C)CCN2CCc2ccccc2)cc1 (stereo not given)	-6.0	3.8	-3.3	-0.8	3.1	3.1%
52	COc1ccc(CCC(C)NCc2ccc(F)cc2)cc1 (stereo not given)	-58.4	/	-0.7	-0.6	8.8	1.4%
53	COC(=O)c1nc2ccc(C)cn2c1F	-1.6	-7.5	0.2	0.0	5.3	1.9%
54	O=C(CCN1C(=O)/C(=C/c2cccc(Br)c2)SC1=S)Nc1cccnc1	-9.4	/	-1.0	0.2	-1.2	13.5%
55	COC(=O)c1ccc2c(=O)n(CC3CCCO3)c(SCC(=O)Nc3ccccc3OC)nc2c1 (stereo not given)	-20.5	3.1	-4.4	-0.1	0.8	0.4%
56	CSCC[C@H](NC(=O)c1ccc(OCC2CCCO2)cc1)c1nc2ccccc2[nH]1 (stereo not given in full)	-16.3	-1.1	-2.7	-0.5	-8.8	2.1%
57	O=C1NC(=S)N/C1=C\c1ccc(Oc2ccc(C(F)(F)F)cc2[N+](=O)[O-])c(Cl)c1	-3.6	4.9	0.0	0.5	6.3	-1.3%
58	Clc1ccc(Cc2noc(CN3CCN(c4ccccc4)CC3)n2)c(Cl)c1	0.1	12.2	0.6	1.3	-8.3	/

Molecules listed so far that contain a CF3 group (two):
cpd	smiles	D2 potentiator	CtBP-E1A inh	D2 ag	TRPML1 ag	Six1-Eya2 blk	PINK1 modulator
49	CCOC(=O)c1csc(-n2nc(C)cc2C(F)(F)F)n1	-5.4	13.4	0.3	0.3	3.4	0.4%
57	O=C1NC(=S)N/C1=C\c1ccc(Oc2ccc(C(F)(F)F)cc2[N+](=O)[O-])c(Cl)c1	-3.6	4.9	0.0	0.5	6.3	-1.3%
